From PubChem BioAssay
GIV Gai3 FP – blocks GIV peptide binding to rat Galpha-i3. P08753. Galpha-i3/FITC-GIV peptide fluorescence polarization, 90 min; hits give low values; scaled: aluminum fluoride 0%, vehicle 100%. percent of control (FP), % (concentration not given with the values). 210,000 compounds, 0.42% hits. AID 1224905;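 active means replicate mean at 85% of control or lower, very high polarization wells dropped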;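 further: wells of about 15 µL received 100 nL stock; the first replicate is given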
Target sequence (P08753 whole entry, looked up): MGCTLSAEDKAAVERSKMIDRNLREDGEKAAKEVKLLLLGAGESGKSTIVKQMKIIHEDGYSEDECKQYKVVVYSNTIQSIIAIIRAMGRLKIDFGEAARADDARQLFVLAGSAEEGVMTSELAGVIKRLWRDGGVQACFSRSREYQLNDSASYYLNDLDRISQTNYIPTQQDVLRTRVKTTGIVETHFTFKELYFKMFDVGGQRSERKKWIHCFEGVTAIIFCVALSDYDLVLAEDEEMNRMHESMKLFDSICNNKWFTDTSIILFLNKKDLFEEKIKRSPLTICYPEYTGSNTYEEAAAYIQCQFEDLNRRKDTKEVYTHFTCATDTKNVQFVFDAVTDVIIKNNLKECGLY
Sa growth 42C – blocks Staphylococcus aureus growth; S. aureus RN4220 growth, OD600, 20 h, 42 °C; hits give low values; relative growth, % (test concentration not listed); AID 720641; 170,000 compounds, 0.53% hits;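 active means growth at 42 °C up to 50% and 20 or more points under that at 30 °C, or under 10% at both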;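 further: 300 nL library stock went into each well; scaled to the means of positive and negative controls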
HCMV UL50-53 inh – cytomegalovirus nuclear egress complex inhibition; HTRF UL50-UL53 interaction, normalized percent inhibition; inhibition, % (test concentration not listed); 190,000 compounds, 0.15% hits;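 active means both replicates at 50% or more, plus weaker picks with an unusually low signal ratio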;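 further: stock transfer was 100 nL into about 20 µL; 0% = negative control wells and 100% = wells with untagged competitor protein; inactives centre near -12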
Sa growth 42C second temp – second read-out of Sa growth 42C, no call of its own (marks repeat the call); relative growth, %; measured here: growth at 30 °C;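 optical density after 20 h as mean of two plates; 100% = untreated growth and lower means inhibition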
Numbers without * were called inactive.

O=C(COc1cc(Cl)ccc1Cl)Nc1ccc(Cl)cc1C(=O)c1ccccc1 was read as GIV Gai3 FP 108.5, Sa growth 42C 98.1, HCMV UL50-53 inh -14.8 and Sa growth 42C second temp 96.4.
Screening Cc1ccc(-n2c(/C=C/c3cc(Br)cs3)nc3ccccc3c2=O)cc1 returned GIV Gai3 FP 109.0, Sa growth 42C 126.2 and Sa growth 42C second temp 89.7.
Screening Cc1[nH]c2ccccc2c1C1=CCNCC1 returned GIV Gai3 FP 127.1, Sa growth 42C 101.7 and Sa growth 42C second temp 99.2.
Screening CN(C(=O)Cc1ccc(Cl)c(Cl)c1)C(CN1CCCC1)c1cccc(OCC(=O)O)c1 (centres undefined) returned GIV Gai3 FP 104.1 and HCMV UL50-53 inh -21.5.
C=CCC(O)(CC=C)C(N)Cc1ccccc1 (centres undefined) was read as Sa growth 42C 92.6, HCMV UL50-53 inh -8.6 and Sa growth 42C second temp 88.9.
`CCNc1nc2[nH]c(=O)c3c(c2s1)OC(N)=C(C#N)C3c1cccs1` (centres undefined) gave GIV Gai3 FP 108.0, Sa growth 42C 89.2 and Sa growth 42C second temp 87.6.
O=C(CNC(=S)N1CC2CC(C1)c1cccc(=O)n1C2)NCc1ccccc1 (centres undefined) was read as GIV Gai3 FP 99.5, Sa growth 42C 100.6, HCMV UL50-53 inh -20.0 and Sa growth 42C second temp 92.8.
Screening C=Cn1ccnc1P(=S)(c1nccn1C=C)C1CCCCC1 returned Sa growth 42C 103.8, HCMV UL50-53 inh 13.4 and Sa growth 42C second temp 95.5.
For O=C(Cn1c2ccccc2c2cn[nH]c(=O)c21)N1CCC2(CC1)OCCO2 the results were GIV Gai3 FP 105.2, Sa growth 42C 99.8, HCMV UL50-53 inh 5.1 and Sa growth 42C second temp 93.1.
Cc1ccc(NC(=O)N(Cc2ccc3c(c2)OCO3)C2CCN(Cc3ccccc3)CC2)cc1C was read as GIV Gai3 FP 103.0, Sa growth 42C 85.0 and Sa growth 42C second temp 79.2.

5 compounds picked at random from the list so far:
O=C(CNC(=S)N1CC2CC(C1)c1cccc(=O)n1C2)NCc1ccccc1 (centres undefined) was read as GIV Gai3 FP 99.5, Sa growth 42C 100.6, HCMV UL50-53 inh -20.0 and Sa growth 42C second temp 92.8.
For O=C(Cn1c2ccccc2c2cn[nH]c(=O)c21)N1CCC2(CC1)OCCO2 the results were GIV Gai3 FP 105.2, Sa growth 42C 99.8, HCMV UL50-53 inh 5.1 and Sa growth 42C second temp 93.1.
Screening Cc1[nH]c2ccccc2c1C1=CCNCC1 returned GIV Gai3 FP 127.1, Sa growth 42C 101.7 and Sa growth 42C second temp 99.2.
O=C(COc1cc(Cl)ccc1Cl)Nc1ccc(Cl)cc1C(=O)c1ccccc1 was read as GIV Gai3 FP 108.5, Sa growth 42C 98.1, HCMV UL50-53 inh -14.8 and Sa growth 42C second temp 96.4.
Screening CN(C(=O)Cc1ccc(Cl)c(Cl)c1)C(CN1CCCC1)c1cccc(OCC(=O)O)c1 (centres undefined) returned GIV Gai3 FP 104.1 and HCMV UL50-53 inh -21.5.

Not all compounds are listed; the hit share may differ from the screen's.
